Autofluor counter: counter-screen for toxin protease inhibitors: compound fluorescence; AID 624483; 360,000 tested, 3.1% active; compound autofluorescence counterscreen, microsphere flow cytometry; active compounds read high; fluorescence intensity (concentration not given with the values);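 active = at least 3 SD above the mean of all compounds, about 16000 in these data; inconclusive = too few beads counted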;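 also: 100 nL of 1 mM stock went into each well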
RN4220 kill: kills Staphylococcus aureus RN4220; S. aureus RN4220 growth, OD600, 16 h; 330,000 tested, 0.33% active; inhibition, % (test concentration not listed);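 active = z-score of -3 or lower and OD600 up to 0.18 on both plates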;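 also: plate controls were untreated cells for no effect and reference antibiotic for full effect; stock transfer was 100 nL into about 80 µL; one replicate is shown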
PrP 5UTR inh: inhibition of PrP 5' UTR reporter expression | cell-based PrP 5' UTR mRNA reporter, plate reader | inhibition, % (test concentration not listed) | 340,000 tested, 0.35% active | AID 488862;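 active = every replicate at 50% or more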;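 also: 0 = median of the neutral control wells; tested in H4 reporter cells; numbers are from one replicate; inactives centre near -14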
BJeLR viability: BJeLR cell viability loss. inhibition, % (test concentration not listed). 300,000 tested, 0.17% active. BJeLR (HRASV12) viability, CellTiter-Glo ATP luminescence, 48 h; reference of the scale not given here;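 active = replicate mean above 50%; inconclusive = above 50% but judged a plate artefact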;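 also: 50 nL library stock added to about 25 µL; numbers are from one replicate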
Sa ugtP lethal: kills S. aureus RN4220 lacking UgtP; S. aureus RN4220 ugtP deletion, OD600 growth, 16 h; some inactives read as strong as hits; growth inhibition, % (test concentration not listed); 330,000 tested, 0.54% active; AID 1259309;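 active = z-score under -3 and OD600 up to 0.15 on both plates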;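 also: plate controls were untreated wells for no effect and antibiotic for full effect; wells of about 80 µL received 100 nL stock; the first replicate is given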
Mtb hypoxia inh: Mtb hypoxia fluorescent reporter inhibition. M. tuberculosis hypoxia-regulated fluorescent reporter, fluorescence. fluorescence inhibition, % (concentration not given with the values). 300,000 tested, 0.1% active. AID 1159583;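 active = 35 to 45% if threefold the growth effect, above 45% if 1.5-fold the growth effect; inactive = the rest, general growth blockers included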;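 also: wells of about 50 µL received 100 nL stock; 0% = vehicle wells and 100% = reference inhibitor wells; whole bacteria with a GFP reporter of the hypoxia response; strong numbers were not always called active; many hits fall short of the cut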
Mtb hypoxia inh growth: further read-out of Mtb hypoxia inh, marked with its call; growth inhibition, %; measured here: M. tuberculosis growth (absorbance);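 0% = vehicle and 100% = reference antibiotic; read after six days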
An asterisk follows results filed as active; u = inconclusive; x = not tested or not shown; & = joins results of further samples.

Results follow in this order: Mtb hypoxia inh growth	BJeLR viability	RN4220 kill	Sa ugtP lethal	PrP 5UTR inh	Autofluor counter	Mtb hypoxia inh
> O=C(CSc1ncnc2sc3c(c12)CCCCC3)NCc1ccco1
→ x	20	4.6	7	-6	3700	x
> O=C(CNC(=O)c1ccco1)Nc1cc(Cl)ccc1N1CCOCC1
→ 3	7	0.2	-4	-27	3856	5
> CN(C)N1C(=O)C2C3C=CC(O3)C2C1=O (stereo not given)
→ 11	x	-1.7	-2	-37	3442	19
> COc1ccc(Br)c(C(=O)Nc2nc3ccccc3[nH]2)c1
→ -6	-1	3.0	6	-57	5757	-2
> COc1ccc(-c2cc(=NCCC(=O)O)c3cc(C)ccc3o2)cc1
→ 7	-5	-3.4	3	-47	4391	13
> COC(=O)CCCC(=O)NC1CCCN(C2Cc3ccccc3C2)C1 (stereo not given)
→ 19	-7	-1.2	1	-9	3500	6
> COc1ccc(C(=O)/C=C/Nc2ccc([N+](=O)[O-])cc2C)cc1OC
→ 9	-16	16	-8	-41	2852	-5
> COC(=O)[C@H](CCSC)NC(=O)NCc1ccccn1
→ 3	0	6.4	11	-20	8185	7
> CCOC(=O)c1ccc(NC(=O)CSc2nc(=O)n3cccc(C)c3n2)cc1
→ 11	4	6.7	-4	-16	5459	8
> O=C(OCN1C(=O)c2ccccc2C1=O)c1cccs1
→ 3	-13	6.5	3	-1	2477	-4
> COC(=O)CCC(=O)OC1(C)C(=O)C=C2C=C(C3CC3)N(C3CCCC3)C=C2C1=O (stereo not given)
→ 10	1	1.6	-1	-9	2764	6
> N#Cc1c(C(F)(F)F)cc(C2CC2)[nH]c1=O
→ 4	4	2.4	5	5	5946	6
> CC(C)OCCCNC(=O)c1cccs1
→ 6	2	3.5	6	-19	22575*	11
> COc1ccc(S(=O)(=O)N2CCOCC2)cc1NC(=O)COC(=O)CCOc1ccc(C)cc1
→ 3	-7	4.2	12	-18	u	0
> COc1cc(C(=O)Nc2ccc(S(=O)(=O)N3CCc4ccccc43)cc2)cc(OC)c1OC
→ 1	4	19	-2	-19	18077*	-4

Structures shown so far that have nitrogen in an aromatic ring, in the order listed:
Results follow in this order: Mtb hypoxia inh growth	BJeLR viability	RN4220 kill	Sa ugtP lethal	PrP 5UTR inh	Autofluor counter	Mtb hypoxia inh
> O=C(CSc1ncnc2sc3c(c12)CCCCC3)NCc1ccco1
→ x	20	4.6	7	-6	3700	x
> COc1ccc(Br)c(C(=O)Nc2nc3ccccc3[nH]2)c1
→ -6	-1	3.0	6	-57	5757	-2
> COC(=O)[C@H](CCSC)NC(=O)NCc1ccccn1
→ 3	0	6.4	11	-20	8185	7
> CCOC(=O)c1ccc(NC(=O)CSc2nc(=O)n3cccc(C)c3n2)cc1
→ 11	4	6.7	-4	-16	5459	8
> N#Cc1c(C(F)(F)F)cc(C2CC2)[nH]c1=O
→ 4	4	2.4	5	5	5946	6

The listing continues.
Results follow in this order: Mtb hypoxia inh growth	BJeLR viability	RN4220 kill	Sa ugtP lethal	PrP 5UTR inh	Autofluor counter	Mtb hypoxia inh
> CCOC(=O)C1CCCN(C(=O)c2ccc(C)cc2O)C1 (stereo not given)
→ -12	-1	-2.3	0	0	x	-10
> Cc1nc2c(c(=O)c3ccccc3n2C)c(=O)n1C1CCCCCC1
→ 15	-1	5.5	-3	-34	4416	13
> CC(Oc1ccccc1F)C(=O)NNC(=O)Cc1ccc(S(=O)(=O)N2CCOCC2)s1 (stereo not given)
→ 8	x	8.8	6	-39	6061	10
> Oc1ccc(C[C@@H]2CNC(=S)N2CCCCC2CCCCC2)cc1
→ x	2	x	x	-4	3858	x
> O=C(NCCN1CCN(c2ccccc2Cl)CC1)Nc1ccccc1
→ 10	-3	1.7	10	-18	3547	12
> CCOc1ccc(C(=O)Nc2cc(C)on2)cc1OCC
→ 6	-2	2.6	5	-27	3374	8
> Cc1n[nH]c(=S)c2nn(-c3cccc(Cl)c3)c(C)c12
→ 6	-11	-7.3	2	x	x	3
> Cc1cc(C)cc(Nc2ncnc3nc[nH]c23)c1
→ -9	-2	3.3	3	-10	2863	-6
> Cc1ccc2oc(-c3cccc(NC(=O)/C=C/c4cccc([N+](=O)[O-])c4)c3C)nc2c1
→ x	7	x	x	-31	2599	x
> Cc1ccccc1S(=O)(=O)/N=C(/Nc1nc2ccccc2s1)c1ccccc1
→ -2	x	17	14	-49	2977	0
> COc1ccccc1C1/C(=C(/O)c2cnn(-c3ccccc3)c2C)C(=O)C(=O)N1CCN(C)C (stereo not given)
→ 9	x	0.7	3	-13	4263	10
> CC(C)N1CCC(=NNc2ccc([N+](=O)[O-])cc2S(=O)(=O)N2CCOCC2)CC1
→ 7	4	-3.2	3	-8	3482	-16
> CC(=O)c1cccc(NC(=O)N2CCCC2C(=O)NCc2ccc(F)cc2)c1 (stereo not given)
→ 8	-3	-6.5	-1	-9	7218	-11
> CCOC(=O)N1CCN(C(=O)CCc2ccc(S(=O)(=O)NC(C)C)cc2)CC1
→ 5	-1	4.9	2	-9	3759	11
> Cc1ccc(NC(=O)/C(=C/c2cccc(Br)c2)NC(=O)c2ccco2)cc1
→ -12	-15	3.9	4	-7	2426	-7

(continued)
Results follow in this order: Mtb hypoxia inh growth	BJeLR viability	RN4220 kill	Sa ugtP lethal	PrP 5UTR inh	Autofluor counter	Mtb hypoxia inh
> Cn1cccc1C1(C(F)(F)F)NCCNC1=O (stereo not given)
→ -4	2	1.3	2	-29	20355*	2
> O=C(N/C(=C/c1ccc(Br)cc1)C(=O)N1CCCCC1)c1ccccc1F
→ 9	5	2.8	7	-23	5521	11
> COc1cccc(CNC(=O)CCCn2nc(C)c3c(C)n(-c4ccc(C)cc4)nc3c2=O)c1OC
→ 3	-9	0.3	0	10	5444	-1
> O=C(O)c1ccccc1NCc1ccncc1
→ 6	10	0.4	5	-45	11496	3
> CSCCC(NC(=O)c1ccc(Cl)cc1Cl)C(=O)OC1CCCCC1=O (stereo not given)
→ 4	0	5.1	6	-1	x	10
> NC(=O)C1CCN(C(=O)COc2ccc3ccc(=O)oc3c2)CC1
→ x	-1	-1.4	7	-3	4197	x
> CCc1nnc(NC(=O)CSc2nnc(-c3ccco3)n2C)s1
→ -4	-3	4.7	2	-21	21882*	-1
> N#Cc1cccc(NC(=O)CCn2ccnc2)c1
→ 9	1	3.8	3	-8	2441	6
> COc1ccccc1NC(=S)N(CCCN1CCOCC1)Cc1ccccn1
→ 2	3	9.2	-2	-42	10373	7
> Cc1cnn(CCC(=O)NNC(=S)Nc2ccc(F)cc2)c1
→ x	-4	-1.5	4	-13	x	x
> COc1cc(C(=O)Nc2cc(OC)c(OC)c(OC)c2)ccc1OCc1c(C)noc1C
→ -3	x	6.5	9	-12	5440	10
> CC1CCN(c2nc(-c3ccco3)c3c(c2C#N)CC(C)(C)OC3)CC1
→ 0	-2	3.0	5	-4	5546	-6
> COCCn1c(C)cc(/C=C2/SC(=O)N(CC(=O)N3CCCC3)C2=O)c1C
→ 5	4	1.7	3	-9	5203	-6
> O=[N+]([O-])c1ccc(N2CCCCC2)cn1
→ -5	19	2.1	4	-11	1948	7
> CCN(CCN(C)C)C(=O)c1ccc2c(c1NCCO)C(=O)c1ccccc1C2=O
→ 8	-3	8.3	5	-14	4310	11

Profiles as entered above. Values in the order: Mtb hypoxia inh growth	BJeLR viability	RN4220 kill	Sa ugtP lethal	PrP 5UTR inh	Autofluor counter	Mtb hypoxia inh
Profile of CCOC(=O)c1ccc(NC(=O)CSc2nc(=O)n3cccc(C)c3n2)cc1 = 11	4	6.7	-4	-16	5459	8
Profile of CC(Oc1ccccc1F)C(=O)NNC(=O)Cc1ccc(S(=O)(=O)N2CCOCC2)s1 (stereo not given) = 8	x	8.8	6	-39	6061	10

Next section
Results follow in this order: Mtb hypoxia inh growth	BJeLR viability	RN4220 kill	Sa ugtP lethal	PrP 5UTR inh	Autofluor counter	Mtb hypoxia inh
> O=[N+]([O-])c1cc(F)cc(F)c1Nc1cc(F)cc(F)c1
→ 2	x	3.7	-11	-4	3107	4
> CC(=O)N1CCN(C(=O)c2cc3ccccc3o2)CC1
→ 5	6	2.4	12	-27	4079	6
> CCOC(=O)C1C2COc3cc(OC)ccc3C2N2C(=O)N(c3ccc(C)cc3)C(=O)[C@]12C (stereo not given in full)
→ -2&4	x	4.4&1.9	2&-5	x	x	11&9
> CC(C)n1ncc(C(N)=O)c1N
→ x	4	0.8	0	-7	4391	x
> COCC(=O)NC1CCN(C(=O)Nc2ccc(Br)cc2)CC1
→ 11	11	-0.3	1	-1	16587*	-4
> CC(Sc1ncnc2ccccc12)C(=O)Nc1ccc2c(c1)OCO2 (stereo not given)
→ x	-1	-0.5	1	-22	4787	x
> CCCC(NC(=O)COc1cc2c(c3oc(=O)cc(C)c13)CCC(C)(C)O2)C(=O)O (stereo not given)
→ 0	-6	1.8	9	-23	3896	-7
> Cn1ccc(=Nc2ccc(NC(=O)c3ccc(N=c4ccn(C)c5ccc([N+](=O)[O-])cc45)cc3)cc2)cc1
→ x	30	95*	100*	-15	2858	x
> COc1cc(S(=O)(=O)NCCCN2CCOCC2)ccc1-n1cnnn1
→ 3	1	14	7	-13	4449	2
> CC(=O)c1sc2nsc(SCCN3CCOCC3)c2c1N
→ 34	-13	3.3	4	x	3806	21
> O=C1CCCN2N=C(SCC(=O)Nc3nccs3)SC2=N1
→ -8	-4	-0.5	0	-4	4323	-9
> Cc1ccc2c(c1)N(CC(=O)NC1CCCC1)C(=O)c1cccnc1O2
→ x	-7	2.0	2	-4	6057	x
> Cc1nc2ccc(S(=O)(=O)NCC(=O)NCCN3CCCCC3C)cc2s1 (stereo not given)
→ 9	6	-19	-11	-8	3454	2
> CSc1ccc(NC(=O)NCCCN2CCC(Cc3ccccc3)CC2)cc1
→ 12	11	-3.6	-4	-10	3593	6
> CCCNc1nc(Cl)nc(NCc2cccnc2)n1
→ -2	3	-1.8	-8	-14	7078	-6

Reprinted at random: 3 entries already listed.
Results follow in this order: Mtb hypoxia inh growth	BJeLR viability	RN4220 kill	Sa ugtP lethal	PrP 5UTR inh	Autofluor counter	Mtb hypoxia inh
> CCOC(=O)C1CCCN(C(=O)c2ccc(C)cc2O)C1 (stereo not given)
→ -12	-1	-2.3	0	0	x	-10
> COc1ccc(Br)c(C(=O)Nc2nc3ccccc3[nH]2)c1
→ -6	-1	3.0	6	-57	5757	-2
> CSCCC(NC(=O)c1ccc(Cl)cc1Cl)C(=O)OC1CCCCC1=O (stereo not given)
→ 4	0	5.1	6	-1	x	10

(more compounds)
Results follow in this order: Mtb hypoxia inh growth	BJeLR viability	RN4220 kill	Sa ugtP lethal	PrP 5UTR inh	Autofluor counter	Mtb hypoxia inh
> O=C(C1CC(c2ccc(F)cc2)=NO1)N1CCc2ccccc2C1 (stereo not given)
→ x	-9	1.9	5	-1	4556	x
> O=C(O)c1ccc(NC(=O)C2CCCCC2)cc1
→ 3	-4	5.4	8	-18	x	4
> CCOc1ccccc1-n1c(SCC(N)=O)nnc1-c1cccnc1
→ 7	4	-0.3	0	-3	3192	3
> CCOC(=O)N1CCN(C(c2ccc(C(C)C)cc2)c2sc3nc(C)nn3c2O)CC1 (stereo not given)
→ 1	6	2.7	3	-19	6519	5
> S=C(NCc1cccc(Cl)c1)NCc1ccco1
→ -6	9	-0.2	3	-10	4129	-2
> CC(=O)c1ccc(NC(=O)COC(=O)CCC2CCCC2)cc1
→ 7	x	7.2	12	-18	3840	14
> CCOC(=O)N1CCC(n2c(SCC(=O)OCc3ccccc3)nc3ccsc3c2=O)CC1
→ -1	-2	0.1	0	-22	8021	-2
> Cc1cc(C)n2nc(C(=O)NN=Cc3cn(C)nc3C)nc2n1
→ 0	x	2.2	9	x	x	3
> COc1c(C)cc(C(=O)C2CCCN(C(=O)/C=C/c3ccccn3)C2)cc1C (stereo not given)
→ 4	9	3.7	13	-39	3628	12
> N#C/C(=C\c1cccc([N+](=O)[O-])c1)C(=O)Nc1cccnc1
→ x	-2	x	x	-1	4111	x
